WNV NS2B-NS3 inh: WNV NS2B-NS3 proteinase inhibition. WNV NS2B-NS3 protease, fluorogenic substrate Ex360/Em465; stronger effect = lower value. hit rate 0.18% among 65,000. P06935. z-score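 (tested at a level between 10 and 100 µM)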;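 active = z-score at -3 or under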;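 note: score is relative to mean and spread of the compound wells of a plate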
Target sequence (P06935 1371-1501 limits assumed): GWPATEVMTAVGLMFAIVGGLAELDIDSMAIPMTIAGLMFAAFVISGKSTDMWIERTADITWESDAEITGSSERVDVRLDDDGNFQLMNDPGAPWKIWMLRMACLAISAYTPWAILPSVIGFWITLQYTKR
Target sequence (P06935 1502-1679 limits assumed): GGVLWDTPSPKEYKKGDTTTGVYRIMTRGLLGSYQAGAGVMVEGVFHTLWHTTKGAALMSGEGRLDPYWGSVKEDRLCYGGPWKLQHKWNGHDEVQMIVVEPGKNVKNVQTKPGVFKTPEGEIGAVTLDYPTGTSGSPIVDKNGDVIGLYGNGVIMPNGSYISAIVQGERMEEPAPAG
MT1-MMP promoter: MT1-MMP gene expression reporter suppression – cell-based, luciferase reporter, luminescence (AID 618); MT1-MMP promoter luciferase reporter cells, luminescence; calls from a first round at 10 µM; hits with a dose series show EC50 in µM; hit rate 0.62% among 87,000;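 active = over half of the reporter light lost at 10 µM or EC50 under 50 µM; inactive = the rest and hits that failed the dose series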;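 note: actives suppress MT1-MMP promoter-driven transcription so potencies describe inhibitors; HT1080 fibrosarcoma cells; overnight exposure; toxic or luciferase-blocking compounds were not removed from the actives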
The depositor's hits bear a star; & = joins results of further samples. These rows are one share of the data, so the mix of outcomes need not match the whole.

How did CCOC(=O)c1c(C)n(Cc2ccccc2)c2ccc(OCC(O)CN3C(=O)CNC3=O)cc12 (stereo unspecified) do in these assays?
WNV NS2B-NS3 inh: 2.52

Results for O=C(NCC(c1cccnc1)N1CCN(c2ccccc2F)CC1)Oc1ccccc1 (stereo unspecified) ?
WNV NS2B-NS3 inh: 0.38

How did Cc1ccc2c(c1)C1CN(C)CCC1N2C(=O)c1ccc(Br)o1 (stereo unspecified) do in these assays?
WNV NS2B-NS3 inh: 0.08

How did O=C(CN1CCN(Cc2ccc(Cl)cc2)C1=O)N1CCC2(CC1)OCCO2 do in these assays?
WNV NS2B-NS3 inh: 2.08

How did CN(C)[C@@H]1C(=O)C(C(N)=O)=C(O)[C@@]2(O)C(=O)C3=C(O)c4c(O)cccc4[C@@](C)(O)[C@H]3[C@H](O)[C@@H]12 do in these assays?
WNV NS2B-NS3 inh: 1.12

How did COc1ccc(CN2CCN(c3ccccc3)CC2)c(C)c1C do in these assays?
WNV NS2B-NS3 inh: -0.95

What do the screens show for `Cn1c2ccccc2c2c(C(=O)N3CCC4(CC3)OCCO4)cn(C3CCCCC3)c(=O)c21`?
WNV NS2B-NS3 inh: 0.73

Results for Cc1ccccc1N1C(=O)CC(=O)NC1=O ?
WNV NS2B-NS3 inh: -1.14

How did CN1CCN(C(=O)OC2c3nccnc3C(=O)N2c2ccc(Cl)cn2)CC1 (stereo unspecified) do in these assays?
WNV NS2B-NS3 inh: 2.25&-0.11

What do the screens show for `CCC1(c2ccccc2)C(=O)N(C)C(=O)N(C)C1=O`?
MT1-MMP promoter: inactive

Reprinted from the part before: 3 entries; new compounds follow.
Results for Cc1ccccc1N1C(=O)CC(=O)NC1=O ?
WNV NS2B-NS3 inh: -1.14

How did CN1CCN(C(=O)OC2c3nccnc3C(=O)N2c2ccc(Cl)cn2)CC1 (stereo unspecified) do in these assays?
WNV NS2B-NS3 inh: 2.25&-0.11

What do the screens show for `CCC1(c2ccccc2)C(=O)N(C)C(=O)N(C)C1=O`?
MT1-MMP promoter: inactive

How did O=C(c1ccco1)c1cn(Cc2ccccc2)c2ccccc12 do in these assays?
MT1-MMP promoter: inactive

What do the screens show for `O=C(c1ccccc1F)c1cn(CC(=O)N2CCCCC2)c2ccccc12`?
MT1-MMP promoter: inactive

Results for O=C1NC(=O)C2(C(=O)N1)C(c1ccc(F)cc1)NC(=S)NC2c1ccc(F)cc1 (stereo unspecified) ?
MT1-MMP promoter: inactive

What do the screens show for `CCCC/C(=N\O)c1c[nH]c2ccccc12`?
MT1-MMP promoter: inactive

What do the screens show for `COC(=O)CN1C(=O)C2(C(C(=O)OC)=C(N)Oc3ccccc32)C2=C1CC(C)(C)CC2=O` (stereo unspecified)?
MT1-MMP promoter: inactive

How did Clc1ccccc1CN1CCN(c2ccccc2Cl)CC1 do in these assays?
MT1-MMP promoter: inactive

How did CCOc1ccc2nc(N3CCC(C(=O)N4CCC5(CC4)OCCO5)CC3)sc2c1 do in these assays?
MT1-MMP promoter: inactive

What do the screens show for `C=C(CC1(C(C)NP(=O)(c2ccccc2)c2ccccc2)CC1)c1ccccc1` (stereo unspecified)?
MT1-MMP promoter: inactive

How did CC(C)C/C(=N/O)c1c[nH]c2ccccc12 do in these assays?
MT1-MMP promoter: inactive

What do the screens show for `COP(=O)(CC(=O)O)c1ccccc1` (stereo unspecified)?
MT1-MMP promoter: inactive

7 records picked at random from the list so far, as already listed:
How did CCOC(=O)c1c(C)n(Cc2ccccc2)c2ccc(OCC(O)CN3C(=O)CNC3=O)cc12 (stereo unspecified) do in these assays?
WNV NS2B-NS3 inh: 2.52

How did CN(C)[C@@H]1C(=O)C(C(N)=O)=C(O)[C@@]2(O)C(=O)C3=C(O)c4c(O)cccc4[C@@](C)(O)[C@H]3[C@H](O)[C@@H]12 do in these assays?
WNV NS2B-NS3 inh: 1.12

What do the screens show for `CCCC/C(=N\O)c1c[nH]c2ccccc12`?
MT1-MMP promoter: inactive

How did CCOc1ccc2nc(N3CCC(C(=O)N4CCC5(CC4)OCCO5)CC3)sc2c1 do in these assays?
MT1-MMP promoter: inactive

What do the screens show for `Cn1c2ccccc2c2c(C(=O)N3CCC4(CC3)OCCO4)cn(C3CCCCC3)c(=O)c21`?
WNV NS2B-NS3 inh: 0.73

How did CC(C)C/C(=N/O)c1c[nH]c2ccccc12 do in these assays?
MT1-MMP promoter: inactive

How did O=C(CN1CCN(Cc2ccc(Cl)cc2)C1=O)N1CCC2(CC1)OCCO2 do in these assays?
WNV NS2B-NS3 inh: 2.08

(continued)
Results for ON1C2CCCCC2N(O)C1c1ccccc1 (stereo unspecified) ?
MT1-MMP promoter: inactive

What do the screens show for `CCn1cc(C(=O)c2cccs2)c2ccccc21`?
MT1-MMP promoter: inactive

What do the screens show for `Cn1c(=O)cc(OCCCC(=O)N2CCC3(CC2)OCCO3)c2ccccc21`?
MT1-MMP promoter: inactive

How did CCCCOP(=O)(CN1CCOCC1)OCCCC do in these assays?
MT1-MMP promoter: inactive

Results for CCCOP(=O)(O)c1c([N+](=O)[O-])cc(C(F)(F)F)cc1[N+](=O)[O-] (tested in a mixture with another compound) ?
MT1-MMP promoter: inactive

What do the screens show for `CNC(=O)[C@@H]1C[C@H]1[C@@H](NP(=O)(c1ccccc1)c1ccccc1)c1ccccc1`?
MT1-MMP promoter: inactive

From PubChem BioAssay
